Compound activity deposited in PubChem BioAssay by National Center for Advancing Translational Sciences (NCATS).
Methyltransferases – Primary Screen for Target Class Profiling of Small Molecule Inhibitors of Methyltransferases. purified enzyme, MTase-Glo SAH luminescence; hits give low values. calls only at 40 µM. actives 3.9% (n = 25,000); active = -50% or lower on at least one of six enzymes; inconclusive = the cases between; inactive = as a rule above -30% on all six;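 further: enzymes were COMT GAMT GNMT HNMT NNMT and PNMT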
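Each enzyme was assayed with SAM and its substrate. SAH formation detected by MTase-Glo luminescence; single-point 40 uM screen[…].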
Calls only; i = inactive; ? = inconclusive; + = active, no number. On the % scale 0 is the no-effect control and ±100 the full control effect. This is a subset, so the mix of outcomes need not match the whole.

SMILES | Methyltransferases
CC(C)NC(=O)c1ccc2c(=O)n(C(C)C)c3nn(CC(=O)c4ccc(F)cc4)c(=O)n3c2c1 | i
OCC1CN(c2ncccn2)CC12CCN(Cc1ccsc1)CC2 (stereo unspecified) | i
NC(=O)c1ccc(C(F)(F)F)nc1N1CCC(N2CCCC(O)C2)CC1 (stereo unspecified) | i
O=C(Nc1ccc(-n2nc(C(F)(F)F)cc2C(F)(F)F)cc1)c1ccncc1F | i
CCCCOc1ccc(CNC(=O)c2cc3n(n2)CC(C)(C(=O)NC2CCCCC2)N(C)C3=O)cc1 (stereo unspecified) | i
c1cc2c(cc1OC1CNC1)OCO2 | i
CCC(C)NC(=O)c1ccc2c(=O)n(C)c3nn(Cc4ccc(N5CCCC5=O)cc4)c(=O)n3c2c1 (stereo unspecified) | i
O=C1c2c(-c3nc(-c4ccsc4)no3)nnn2CCN1Cc1cccc(Cl)c1 | i
C[C@@H](NC(=O)c1cc(C(=O)N[C@@H](Cc2ccccc2)[C@H](O)CNC2CC2)cc(N(C)S(C)(=O)=O)c1)c1ccccc1 | i
CC1(C(=O)NC2CCCCC2)Cn2nc(-c3cccs3)cc2C(=O)N1CCc1ccc(Cl)cc1 (stereo unspecified) | i
NC(=O)c1ccc(NC(=O)Cn2nc3c(cc2=O)CCCCC3)cc1 | i
CCC(CNc1nc(CCN)nc2ccccc12)N1CCN(C)CC1 (stereo unspecified) | i
Cc1ccc(CNC(=O)C(C)n2ccc3cc(S(=O)(=O)N4CCCCC4)ccc32)cc1 (stereo unspecified) | i
CN1C(=O)c2cc(C(=O)N3CCOCC3)nn2CC1(C)C(=O)NCc1ccccc1 (stereo unspecified) | i
Cc1oc(C(=O)O)cc1COc1ccc2c(-c3ccccc3)cc(=O)oc2c1 | i

The closing two records of the part above open the next one.
SMILES | Methyltransferases
CN1C(=O)c2cc(C(=O)N3CCOCC3)nn2CC1(C)C(=O)NCc1ccccc1 (stereo unspecified) | i
Cc1oc(C(=O)O)cc1COc1ccc2c(-c3ccccc3)cc(=O)oc2c1 | i
CCS(=O)(=O)N1CCC(N2C(=O)C(OCC3CC3)C23CCCCC3)CC1 (stereo unspecified) | i
CC1CCN(S(=O)(=O)c2ccc3c(ccn3CCC(=O)N3CCN(c4ccccc4)CC3)c2)CC1 | i
CCNS(=O)(=O)c1ccc2[nH]c(=O)[nH]c2c1 | i
CC1c2cccn2CCN1C(=O)Nc1ccccc1F (stereo unspecified) | i
COC(=O)CC[C@@H](C)C1CCC2C3CCC4C[C@H](OC(C)=O)CCC4(C)C3C[C@H](O)C21C (stereo partly specified) | i
CC(=O)c1ccc2c(c1)C(O)C(C(C)(C)O)O2 (stereo unspecified) | i
Cc1ccc(C)c(NC(=O)Cn2c(=O)c3ccc(Cl)cc3n3nncc23)c1 | i
Oc1cc2c(cc1O)CN(C(=S)NCCc1ccc(Cl)cc1)CCC2 | +
CCCn1c(=O)c2ccc(C(=O)NC(C)C)cc2n2c(SCc3cccc(OC)c3)nnc12 | i
COc1cccc(C2c3cccn3-c3sc4c(c3CN2C(=O)NCc2ccc(F)cc2)CCCC4)c1 (stereo unspecified) | i
CCc1ccc(S(=O)(=O)c2nnn3c2nc(NCCC(C)C)c2ccccc23)cc1 | i
Cn1nccc1-c1ccccc1Oc1ccc(S(=O)(=O)Nc2nccs2)cc1C#N | i
CN1CCN(c2nc3c(c(=O)[nH]2)CCN(Cc2cn[nH]c2-c2ccc(F)cc2)CC3)CC1 | i
Cc1ccc(N2C(=O)c3cc4occc4n3CC2(C)C(=O)NC2CCCCC2C)cc1C (stereo unspecified) | i
CC(C)(C)NC(=O)[C@@H]1CN(Cc2cccnc2)CCN1C[C@@H](O)C[C@@H](Cc1ccccc1)C(=O)N[C@H]1c2ccccc2C[C@H]1O | i
Cc1cccc(CNC(=O)C2(C)Cn3cnc(C(=O)NC4CCCCC4)c3C(=O)N2C2CC2)c1 (stereo unspecified) | i
COCCNC(=O)CCn1ccc2cc(S(=O)(=O)N3CCCCC3)ccc21 | i
CCCC1c2ccc(C)n2CCN1C(=O)NC(CC(=O)OCC)c1ccccc1 (stereo unspecified) | i
COc1cc2ncnc(Nc3ccc(O)cc3)c2cc1OC | i
CC(C)c1ccc(NC(=O)Cn2c(=O)oc3cc(S(=O)(=O)NCc4ccccc4)ccc32)cc1 | +
CC[C@H]1OC(=O)[C@H](C)[C@@H](OC2C[C@@](C)(OC)[C@@H](O)[C@H](C)O2)[C@H](C)[C@@H](OC2O[C@H](C)C[C@H](NC)[C@H]2O)[C@](C)(O)C[C@@H](C)CN(C)[C@H](C)[C@@H](O)[C@]1(C)O (stereo partly specified) | i
CC(=O)O[C@@](C)(C(=O)/C=C/C(C)(C)O)[C@H]1[C@H](O)C[C@@]2(C)[C@@H]3CC=C4[C@@H](C=C(O)C(=O)C4(C)C)[C@]3(C)C(=O)C[C@]12C | i
COCc1nc(CCNS(=O)(=O)c2cccc(OC)c2)no1 | i
CCCn1c(=O)c2ccc(C(=O)NC(C)C)cc2n2c(=O)n(C)nc12 | i
CCC(C)NC(=O)c1ccc2c(=O)n(C(C)C)c3nn(CC(=O)c4ccccc4)c(=O)n3c2c1 (stereo unspecified) | i
COc1cccc(CNc2nc3c(S(=O)(=O)c4ccc(F)cc4)nnn3c3ccccc23)c1 | i
COCCC1(CO)CCCN(C(=O)CCc2c(C)noc2C)C1 (stereo unspecified) | i
COc1ccc(CC(=O)N2CCCN(c3cc(-c4ccccc4)[nH]n3)CC2)cc1 | i
O=C(Cn1nc2n(Cc3ccc(F)cc3)c(=O)c3ccccc3n2c1=O)Nc1cccc(F)c1 | i
O=C(CN1CCC2(CC1)NC(=O)CC2C(=O)O)NCc1ccccn1 (stereo unspecified) | i
CCOCCCNC(=O)c1c(C)noc1-c1ccc(OC(F)(F)F)cc1 | i
Cc1cc2[nH]c(=O)[nH]c2cc1S(=O)(=O)Nc1cccc(F)c1 | i
COc1ccc2c(c1)c(CN1C[C@@H](CO)[C@H](c3nc(C)no3)C1)cn2C | i
CCc1cnn2c(NCc3ccc[n+]([O-])c3)cc(N3CCCC[C@H]3CCO)nc12 | ?
COc1ccccc1CN1C(=O)c2cc(-c3ccco3)nn2CC1(C)C(=O)NC1CCCCCC1 (stereo unspecified) | i
COC(=O)[C@H](Cc1cccc(C(=N)N)c1)[C@@H](C)NC(=O)c1ccc(-c2cc[n+]([O-])cc2)cc1 | +
CC1(C(=O)NC2CCCCC2)Cn2c(cc3ccccc32)C(=O)N1C1CCN(Cc2ccccc2)CC1 (stereo unspecified) | i
COCCCN1C(=O)c2cc(-c3ccccc3)nn2CC1(C)C(=O)NCc1ccccc1OC (stereo unspecified) | i
CCNC(=O)C1CC(F)(c2ccc(CN3CCCC3)c(F)c2)C1 (stereo unspecified) | i
Cc1ccc(NC(=O)CSc2nnc3n(C)c(=O)c4ccc(C(=O)NC5CCCCC5)cc4n23)c(C)c1 | i
Cc1cccc2c(C(=O)Nc3ccc4c(c3)C(=O)N(C)C3=NCCN34)cc(-c3ccccc3)nc12 | i
COc1cccc(CNc2nc3c(S(=O)(=O)c4ccc(C)c(C)c4)nnn3c3ccccc23)c1 | i
CC(=O)N1CCN(C(=O)c2cn3cc(-c4ccc(F)cc4)sc3n2)CC1 | i
CC(C)CCn1c(=O)c2ccc(C(=O)NCC(C)C)cc2n2c(=O)n(Cc3ccccc3F)nc12 | i
Cc1ccc2c(c1)c(-n1cccc1)c1n2CC(C)(C(=O)NC2CCCC2)N(Cc2ccccn2)C1=O (stereo unspecified) | i
O=C(NC1CCOCC1)c1ccc(OC2CCN(Cc3ccccn3)CC2)cc1 | i
O=[S+]1([O-])NCC2(CCN(Cc3ccccn3)CC2)Nc2ccccc21 | i
CC(C)CCNC(=O)C1(C)Cn2c(cc3ccccc32)C(=O)N1Cc1cccc(Cl)c1 (stereo unspecified) | i
COCCOC1CN(C2CCN(S(C)(=O)=O)CC2)C12CCCCC2 (stereo unspecified) | i
O=C(NCc1nnc2n1CCCCC2)C1CC2(CCNCC2)CN1 (stereo unspecified) | i
CC(=O)OC1CC(C)C2(CCC3(CC(=O)OC3O)O2)C2(C)CCCC(C)(C)C12 (stereo unspecified) | i
COc1ccc(C(C)NC(=O)c2cc3n(n2)CC(c2ccc(Cl)cc2)OC3)cc1OC (stereo unspecified) | i
Cc1cccc2c1O[C@H]1[C@H](CO)CN([S+](=O)([O-])c3cccs3)[C@@H]21 | i
Oc1ccc(-c2ccc(-c3nc(CCc4ccccc4)no3)cn2)cc1 | i
Cc1ccc(C)c(CSc2nnc3n(CC(C)C)c(=O)c4ccc(C(=O)NC(C)C)cc4n23)c1 | i
CCn1cnnc1-c1nn(C)c2c1CN(C(=O)CCCc1nc3ccccc3s1)CC2 | ?
OCc1ccc(-c2nn(Cc3ccccc3)c3ccccc23)o1 | ?
COC(=O)c1ncn2c1C(=O)N(Cc1ccccc1C)C(C)(C(=O)NCc1ccccc1)C2 (stereo unspecified) | i
CCCn1c(=O)c2ccc(C(=O)NCC(C)C)cc2n2c(=O)n(CC(=O)Nc3ccc(CC)cc3)nc12 | i
O=C(CCn1ccc2cc(S(=O)(=O)N3CCCCC3)ccc21)NC1CC1 | i

(more compounds)
SMILES | Methyltransferases
CC1(C(=O)NC2CCCCCC2)Cn2c(cc3sccc32)C(=O)N1Cc1cccnc1 (stereo unspecified) | i
O=C(Nc1ccccc1)c1cc2n(n1)CCN(C(=O)COc1ccccc1)C2 | i
CCc1cc2c(cc3n2CC(C)(C(=O)NC2CCCCC2)N(c2ccc(Cl)cc2)C3=O)s1 (stereo unspecified) | i
CCCn1c(=O)c2ccccc2n2c(=O)n(Cc3cccc(C)c3)nc12 | i
CCN(c1cc(-c2ccc(CN3CCOCC3)cc2)cc(C(=O)NCc2c(C)cc(C)[nH]c2=O)c1C)C1CCOCC1 | ?
COc1ccc(CN2C(=O)[C@H](OC)[C@@H]2C2=CCN(C(=O)CC(C)C)CC2)cc1 | i
CCCn1c(=O)c2ccccc2n2c(=O)n(CC(=O)Nc3ccc4c(c3)OCO4)nc12 | i
O=C(NC1CC1)c1ccc2c(=O)nc3c(-c4ccccc4)n[nH]n3c2c1 | i
Nc1ncnc2c1ncn2CCNCCCCCO | i
Cc1cccc(N2CCN(C(=O)Cn3ccc4cc(S(=O)(=O)N5CCCCC5)ccc43)CC2C)c1 (stereo unspecified) | i
CCC1c2ccc(C)n2CCN1C(=O)Nc1ccc(Cl)cc1 (stereo unspecified) | i
CC(=O)C1=C(O)C2c3c[nH]c4cccc(c34)CC2C(C)(C)N(C)C1=O (stereo unspecified) | ?
O=C(C1=CCN2c3c(cccc31)OC[C@H]2CN1CCOCC1)c1cccc2ccccc12 | ?
COc1ccc(OC)c(CNC(=O)c2cc3n(n2)CC(C)(C(=O)NCc2ccccc2)N(C)C3=O)c1 (stereo unspecified) | i
COc1ccc(-c2nnn3c2nc(NCc2cccc(OC)c2)c2ccccc23)cc1 | i

In another format: entries from further up
> CCCn1c(=O)c2ccccc2n2c(=O)n(CC(=O)Nc3ccc4c(c3)OCO4)nc12
  Methyltransferases: i

> O=C(NC1CC1)c1ccc2c(=O)nc3c(-c4ccccc4)n[nH]n3c2c1
  Methyltransferases: i

Remaining list, next part
SMILES | Methyltransferases
CCCN1C(=O)c2c(C(=O)NCCc3cccc(C)c3)ncn2CC1(C)C(=O)NC1CCCC1 (stereo unspecified) | i
COc1ccc(CNc2nc3c(S(=O)(=O)c4ccccc4)nnn3c3ccccc23)cc1 | i
CC1(C(=O)NCC2CCCO2)Cn2c(cc3ccccc32)C(=O)N1C1CCCc2ccccc21 (stereo unspecified) | i
O=C(c1cc[nH]c1C1CCCNC1)N(Cc1ccc(F)cc1)Cc1cccnc1 (stereo unspecified) | ?
CCC(C)NC(=O)c1ccc2c(=O)n(C(C)C)c3nn(Cc4cccc(Cl)c4)c(=O)n3c2c1 (stereo unspecified) | i
CC1=C(C(=O)Nc2ccccc2)C(c2cc(C)ccc2C)N2C(CC(=O)N3CCCC3)=CSC2=N1 (stereo unspecified) | i
CC(C(=O)NCc1ccccc1)n1ccc2cc(S(=O)(=O)N3CCCCC3)ccc21 (stereo unspecified) | i
CCn1cc(S(=O)(=O)N2CCC(C3CCN(C(=O)NC)CC3)C2)cn1 (stereo unspecified) | i
COCCN(C)C[C@@H]1CN(C(=O)c2nc(-c3ccccc3)[nH]c2C)C[C@@H]1CO | i
CC[C@H]1CN(C(=O)NC(C)C)CC[C@H]1CC(=O)N(C)CCC#N | i
Cc1cc(C)cc(N2C(=O)c3cc4occc4n3CC2(C)C(=O)NC2CCCCCCC2)c1 (stereo unspecified) | i
COc1cc(NC(=O)c2ccccn2)ccc1Cl | i
O=C1NCCN2CC3(CCN(C(=O)C4(c5ccccc5)CC4)CC3)CC12 (stereo unspecified) | i
O=C1N[C@H](CC(=O)N2CCc3ccccc3C2)C(=O)Nc2ccccc21 | i

Another view of part of the listing above:
COCCN(C)C[C@@H]1CN(C(=O)c2nc(-c3ccccc3)[nH]c2C)C[C@@H]1CO
  Methyltransferases = i

CC[C@H]1CN(C(=O)NC(C)C)CC[C@H]1CC(=O)N(C)CCC#N
  Methyltransferases = i

Cc1cc(C)cc(N2C(=O)c3cc4occc4n3CC2(C)C(=O)NC2CCCCCCC2)c1 (stereo unspecified)
  Methyltransferases = i

COc1cc(NC(=O)c2ccccn2)ccc1Cl
  Methyltransferases = i
